Bioassay records: PubChem, Emory University Molecular Libraries Screening Center
Measles inh – inhibitors of measles virus growth in infected cells; infected Vero cells, GFP fluorescence, 64 h; active compounds read low; z-score (no concentration beside the values); hit rate 0.1% among 33,000;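 active = z-score under -3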;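 also: score is relative to mean and SD of the compound wells of a plate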
* hit, by the source's call. These rows are one share of the data; the hit share may differ from the screen's.

SMILES	Measles inh
Cc1ccc(S(=O)(=O)NC(=O)Nc2ncc3c(n2)CC(c2ccco2)CC3=O)cc1 (stereo unspecified)	-0.4
COCC1=C(C(=O)OC)C(c2ccc(OC)cc2)n2ncnc2N1 (stereo unspecified)	-0.01
CCOC(=O)c1cc2c(=O)n3ccccc3nc2n(C2CCCCC2)c1=NC(=O)c1ccco1	-0.98
O=C(C1c2ccccc2C(=O)N2CCc3ccccc3C12)N1CCOCC1 (stereo unspecified)	-0.71
Cc1ccccc1C(=O)Nc1ccc(NC(=O)c2cccs2)cc1	2.4
COc1ccc(C2CC(=O)C3=C(C2)Nc2ccccc2NC3c2c[nH]c3ccccc23)cc1OC (stereo unspecified)	-1.4
COc1cccc(N2CCN(C(=O)c3cnn4c(C(F)(F)F)cc(-c5ccc(OC)c(OC)c5)nc34)CC2)c1	-0.53
COC(=O)c1c(NC(=O)COc2ccc([N+](=O)[O-])cc2)sc(C)c1C	-0.63
CCOC(=O)c1sc(NC(=O)COc2ccc(Cl)cc2C)nc1C	-0.33
CCC1=NN(C(=O)c2cccc(C)c2O)C(O)(c2ccc(Br)cc2)C1 (stereo unspecified)	-0.53
COc1cccc2cc(-c3csc(NC(=O)CCC(=O)N4CCCC(C)C4)n3)c(=O)oc12 (stereo unspecified)	-0.44
Fc1ccccc1-n1cc(-c2ccc(Br)cc2)[nH]c1=S	-0.62
Cc1nn(-c2ccccc2)c(OC(=O)CC(C)C)c1Sc1ccccc1	-0.62
Cc1nc2nc(SCC(=O)N3CCCC3)nn2c(C)c1Cc1ccccc1	-0.55
COC(=O)c1cc(NS(=O)(=O)c2ccc3c(c2)CCC(=O)N3)cc(C(=O)OC)c1	0.25
Cc1nn(Cc2ccc(C(=O)O)o2)c(C)c1Cl	0.88
COc1ccc(C2C(C(=O)OC3CCCC3)=C(C)NC3=C2C(=O)CC(C)(C)C3)c(OC)c1OC (stereo unspecified)	-0.49
O=C(CCN1C(=O)COc2ccccc21)NCCN1CCN(c2cccc(Cl)c2)CC1	-0.66
O=C(CSc1nnc(-c2ccccc2F)o1)N1CCCc2ccccc21	-0.49
O=C(NCc1ccc(F)cc1)c1cc(=O)[nH]c2ccc(S(=O)(=O)N3CCCCC3)cc12	1.2
CC(=O)N1c2c(cc(Br)cc2S(=O)(=O)NC2CCCCC2C)CC1C (stereo unspecified)	-0.58
N=c1ncn(CC(O)CO)c2nc[nH]c12 (stereo unspecified)	0
Cc1cc(O)c(NC(=O)c2ccc(-c3ccc(Cl)cc3)o2)cc1C	-0.87
CC(C)(C)C(=O)CN1CCN(CC(=O)Nc2ccc(Cl)cc2)CC1	-1.2
CC1(C)C=C(C=Cc2ccccc2Cl)NC(=S)N1	0.69
NC(=O)C1CCN(C(=O)CCn2c(=O)[nH]c3ccsc3c2=O)CC1	-0.62
CC(=O)SCC(=O)N=c1sc2ccccc2n1C	-0.45
Cc1ccccc1NC(=O)c1cnc(Nc2nc3ccccc3o2)nc1C	-0.02
COC(=O)C1=C(NC(=O)c2ccc(C(=O)c3ccccc3)cc2)CCS1	0.6
COc1cccc(CNC(=O)C2c3ccccc3C(=O)N(C)C2c2c[nH]c3ccccc23)c1 (stereo unspecified)	1.6
Cc1c(C(=O)OCC2CCCCC2)[nH]c2c1C(=O)CC(c1cccs1)C2 (stereo unspecified)	-0.42
O=C(CSc1nnc2ccccn12)Nc1ccc(F)cc1	0.35
Cc1cc2nn(-c3ccccc3)nc2cc1NC(=O)c1ccc(-c2ccc([N+](=O)[O-])cc2)o1	-0.83
O=[N+]([O-])c1ccccc1Nc1ccccc1	-0.48
CCc1ccccc1Nc1ncnc2c1cnn2-c1ccc(Cl)cc1	0
c1ccc(Nc2nc(-c3ccccn3)cs2)cc1	1.6
C=CCn1c(SCC(=O)Nc2ccc(F)cc2)nnc1-c1ccco1	-0.35
Cc1c(C(=O)O)oc2ccc(S(=O)(=O)NCCC3=CCCCC3)cc12	-0.27
CNC(=O)c1c[nH]c2ccc(S(=O)(=O)Nc3cccc(C(F)(F)F)c3)cc2c1=O	-0.82
O=C(Nc1ccc2oc(-c3cccc4c(Br)cccc34)nc2c1)c1ccccc1[N+](=O)[O-]	-0.58
CCN1CCN(C2CC(=O)N(c3ccc(Br)cc3)C2=O)CC1 (stereo unspecified)	7
COc1cc(C2NC(=O)c3c(sc4c3CCCC4)N2)cc(Br)c1OC (stereo unspecified)	-0.77
COc1ccc2nc(SC(=O)c3ccccc3)nc(C)c2c1	-0.61
COc1ccc(-c2noc(CCC(=O)Nc3ccccc3F)n2)cc1	1.6
O=C(Cc1c[nH]c2ccccc12)NC1(C(=O)NC2CCCCC2)CCCCC1	-0.98
CC(O)c1nc2ccc([N+](=O)[O-])cc2[nH]1 (stereo unspecified)	-0.24
CCCN(C(=O)c1cc2cc3ccc(C)cc3nc2o1)c1cccc(C)c1	0.26
CC1CCN(S(=O)(=O)N2CCCC(C(=O)NC3CCCC3)C2)CC1 (stereo unspecified)	-0.86
O=C(c1ccc(NS(=O)(=O)c2cccs2)cc1)N1CCCCC1	0.13
COc1cc2c(cc1OC)C(COc1ccc3c(C)cc(=O)oc3c1)N(C(=O)c1ccc(C)c([N+](=O)[O-])c1)CC2 (stereo unspecified)	-0.61

Quoted at random: two records from the list, in no set order.
SMILES	Measles inh
O=C(c1ccc(NS(=O)(=O)c2cccs2)cc1)N1CCCCC1	0.13
CCCN(C(=O)c1cc2cc3ccc(C)cc3nc2o1)c1cccc(C)c1	0.26

(listing goes on)
SMILES	Measles inh
COc1ccc(OC)c(NC(=O)C2c3ccccc3C(=O)N3CCc4cc(OC)c(OC)cc4C23)c1 (stereo unspecified)	1.2
Cc1ccc(S(=O)(=O)N(CC(=O)Nc2c(C)n(C)n(-c3ccccc3)c2=O)c2ccc(C)c(Cl)c2)cc1	0.15
Cc1ccc(S(=O)(=O)NC(Cc2ccccc2)C(=O)O)cc1 (stereo unspecified)	1.8
O=C(NCCCO)C(=O)NCc1cccnc1	1.2
COc1ccc2cc(C(=O)Nc3ccccc3)c(=Nc3ccc(C(F)(F)F)cc3)oc2c1	0.22
CCCN1C(=O)N(c2cccc(Cl)c2)C(C)(O)CC1(C)C (stereo unspecified)	-0.31
CCCCC(NC(C)=O)c1nc2ccccc2n1CCCC (stereo unspecified)	-0.78
CCC1(C)CC(C(=O)c2ccc(OC)cc2)CCO1 (stereo unspecified)	1.8
CN1C(=O)c2ccccc2C(C(=O)N2CCCCCC2)C1c1cn(C)c2ccccc12 (stereo unspecified)	-0.47
CC(=O)C1=NN(c2ccccc2)C(c2cccs2)N1C(C)(C)C (stereo unspecified)	0.84
Cc1nc(N2CCC(C)CC2)c2c(C)c(C(=O)Nc3cc(F)ccc3C)sc2n1	1.5
COc1ccc2oc(=O)c(-c3csc(N)n3)cc2c1	-0.64
Cc1cccc(OCC(O)Cn2cnc3cc(C)c(C)cc32)c1 (stereo unspecified)	-1.2
COc1ccc(Br)cc1C1SCCN1S(=O)(=O)c1ccc(Cl)cc1 (stereo unspecified)	-0.7
CC(C)(C)C1CCc2c(sc(NC(=O)CN3CCCC3)c2C#N)C1 (stereo unspecified)	-0.72
CCOC(=O)C1=C(C)NC(=S)NC1c1ccco1 (stereo unspecified)	1.6
O=C(NCc1ccccc1Cl)c1cc(=O)[nH]c2ccc(S(=O)(=O)N3CCCCCC3)cc12	-0.52
Cc1ccccc1N=Cc1ccc(Br)c([N+](=O)[O-])c1	5.7
O=C(C1CC1)N1CCc2cc(S(=O)(=O)NCc3cccnc3)ccc21	-0.54
O=C(Nc1ccc(-c2nc3ccccc3s2)c(O)c1)c1cc(=O)c2ccccc2o1	0.26
CCOC(=O)c1cnc2c(C)cc(C)cc2c1Nc1cc(Cl)ccc1O	-0.98
Cn1c(=NC(=O)c2ccc(S(=O)(=O)N3CCCc4ccccc43)cc2)sc2cc(S(C)(=O)=O)ccc21	0.21
COc1ccc(NC(=O)c2ccc3c(=O)n(-c4ccccc4)c(=O)[nH]c3c2)cc1OC	-0.11
COC(=O)C1=C(N)OC2=C(C(=O)CC(c3ccccc3)C2)C1c1cccc(OC)c1OC (stereo unspecified)	-0.26
O=C(c1cn(-c2ccccc2)nc1C12CC3CC(CC(C3)C1)C2)N1CCOCC1	-0.53
CCCOc1ccc(C(=O)Nc2ccc(NC(=O)c3ccccc3)c(Br)c2)cc1	0.76
CCCCOC(=O)c1[nH]c2c(c1C)C(=O)CC(c1ccccc1)C2 (stereo unspecified)	-0.44
O=C(NC(NCc1ccccc1Cl)(C(F)(F)F)C(F)(F)F)c1ccccc1	-0.44
CC(C)CCC1=NN(C(=O)c2ccccc2Cl)C(O)(C(F)(F)F)C1 (stereo unspecified)	0.48
Cc1ccc(NC(=O)c2cc(S(=O)(=O)NCCc3ccccc3)ccc2F)cc1F	-2.9
CCOC(=O)c1cnc2c(C)c(Cl)ccc2c1NCc1ccccc1	-1.1
COc1cccc(OC)c1C(=O)Nc1nc(-c2ccc(C)cc2)c(C)s1	-0.14
CCCn1c(=NC(=O)c2cccc(C)c2)c(C(=O)OCC)cc2c(=O)n3ccccc3nc21	-0.37
CNC(=O)c1cc2c(n(-c3ccc(Cl)cc3)c1=O)CC(C)(C)CC2=O	-0.3
O=C(O)c1nsnc1NCCO	1.7
COc1ccc(N=Cc2ccc(OCc3ccc(Cl)cc3)cc2)cc1	-0.72
Cc1ccc(S(=O)(=O)NCc2ccc(C(=O)NC3CCCCC3)cc2)cc1	-0.37
CCN1C(=O)CC(C(=O)Nc2ccc(OC)cc2)SC1=Nc1ccc2c(c1)OCO2 (stereo unspecified)	-0.36
CN(C)CCN1CCc2ccccc21	-0.35
CCc1ccc(NC(=O)Nc2cc(S(=O)(=O)N3CCC(C)CC3)ccc2N2CCC(C)CC2)cc1	1.2
CCOc1cc2c(cc1OCC)C1C(C(=O)N3CCCC(C)C3)c3ccccc3C(=O)N1CC2 (stereo unspecified)	1.6
CCOc1cc(C2Nc3ccc4ccccc4c3C3=C2C(=O)CCC3)ccc1O (stereo unspecified)	-1.5
CC(=O)Oc1ccc(C(=O)Nc2ccc(S(=O)(=O)Nc3nc(C)cc(C)n3)cc2)cc1	0
N#Cc1c(N2C(=O)CC(Sc3ncccc3C(=O)O)C2=O)sc2c1CCCC2 (stereo unspecified)	0.67
Cc1cccc(C)c1NC(=O)CSc1nnnn1-c1ccccc1	-0.48
O=C(CCc1nc(-c2cccs2)no1)Nc1ccccc1F	0.09
COc1ccc(OC)c2[nH]c(=O)c(CCNC(C)=O)cc12	-0.1
CCN(CC)c1ccc2cc(C(N)=O)c(=Nc3ccccc3F)oc2c1	-0.98
CCN(C(=O)Cc1c(C(=O)O)[nH]c2ccccc12)c1ccc(OC)cc1	0.26
Cn1c(=O)cc(SCC(=O)NCc2ccco2)c2ccccc21	2.5

Some of these compounds in order of SMILES length, ascending:
SMILES	Measles inh
O=C(O)c1nsnc1NCCO	1.7
CN(C)CCN1CCc2ccccc21	-0.35
O=C(CCc1nc(-c2cccs2)no1)Nc1ccccc1F	0.09
Cc1cccc(C)c1NC(=O)CSc1nnnn1-c1ccccc1	-0.48
Cn1c(=O)cc(SCC(=O)NCc2ccco2)c2ccccc21	2.5
COc1ccc(OC)c2[nH]c(=O)c(CCNC(C)=O)cc12	-0.1
CCOC(=O)c1cnc2c(C)c(Cl)ccc2c1NCc1ccccc1	-1.1
CCN(CC)c1ccc2cc(C(N)=O)c(=Nc3ccccc3F)oc2c1	-0.98
COc1cccc(OC)c1C(=O)Nc1nc(-c2ccc(C)cc2)c(C)s1	-0.14
CC(C)CCC1=NN(C(=O)c2ccccc2Cl)C(O)(C(F)(F)F)C1 (stereo unspecified)	0.48
Cc1ccc(S(=O)(=O)NCc2ccc(C(=O)NC3CCCCC3)cc2)cc1	-0.37
CCN(C(=O)Cc1c(C(=O)O)[nH]c2ccccc12)c1ccc(OC)cc1	0.26
CNC(=O)c1cc2c(n(-c3ccc(Cl)cc3)c1=O)CC(C)(C)CC2=O	-0.3
Cc1ccc(NC(=O)c2cc(S(=O)(=O)NCCc3ccccc3)ccc2F)cc1F	-2.9
CCN1C(=O)CC(C(=O)Nc2ccc(OC)cc2)SC1=Nc1ccc2c(c1)OCO2 (stereo unspecified)	-0.36
CCOc1cc2c(cc1OCC)C1C(C(=O)N3CCCC(C)C3)c3ccccc3C(=O)N1CC2 (stereo unspecified)	1.6
CCCn1c(=NC(=O)c2cccc(C)c2)c(C(=O)OCC)cc2c(=O)n3ccccc3nc21	-0.37
CCc1ccc(NC(=O)Nc2cc(S(=O)(=O)N3CCC(C)CC3)ccc2N2CCC(C)CC2)cc1	1.2

(cont.)
SMILES	Measles inh
O=C1NC(c2ccc(-c3ccccc3[N+](=O)[O-])o2)C(C(=O)c2ccc(F)cc2)C(O)(C(F)(F)F)N1 (stereo unspecified)	-1.5
CC(=O)C1C(=O)CC(C)(O)C(C(C)=O)C1c1ccc(Cl)cc1 (stereo unspecified)	-0.06
CCC(=O)N1c2ccccc2-c2nnc(SC)nc2OC1CC (stereo unspecified)	0.19
COc1cc(Cl)ccc1Nc1ncc(C(=O)N2CCN(c3ccccc3OC)CC2)c2ccccc12	0.93
CCCCNC(=O)c1ccc(-c2ccccc2)nc1C	-0.26
COc1ccc(C(=O)OC(C)CN(C)C)cc1 (stereo unspecified)	0.38
O=C(NCc1ccccc1)c1ccc2c(=O)n(C3CCCCC3)c(SCc3nc4ccccc4[nH]3)nc2c1	-0.02
COc1ccc(OC)c(-n2cnc3cc(C(=O)NCc4cccnc4)ccc32)c1	0.4
O=C(c1ccc(Cn2c(=S)[nH]c3ccc(Br)cc3c2=O)cc1)N1CCc2ccccc2C1	0.01
CCOC(=O)c1ccc(Nc2cc(C)nc3c(C)cc(C)cc23)cc1	-0.91
CN(C)c1ccc(C2SCC3C(=O)N(c4cccc(C(F)(F)F)c4)C(=S)N32)cc1 (stereo unspecified)	0.01
CCC(=O)Oc1c(S(=O)(=O)c2ccc(C)cc2)c(C)nn1C(C)(C)C	-0.45
CC1CC(C)CN(CCCNC(=O)C2CCCN(S(=O)(=O)N3CCCC3)C2)C1 (stereo unspecified)	1.9
CCC1CCCCN1C(=O)c1sc2ncnc(N3CCc4ccccc4C3)c2c1C (stereo unspecified)	-0.08
c1ccc(CN2c3ccccc3-c3nc4ccccc4n3C2c2ccco2)cc1 (stereo unspecified)	-0.64
O=C1CSC2(C(=O)Nc3ccccc32)N1c1cccc([N+](=O)[O-])c1 (stereo unspecified)	-0.17
O=C(NCCCn1ccnc1)c1ccc(Br)cc1	-0.2
Clc1ccc(C=Cc2nc(-c3ccccc3)c3ccccn23)cc1	0.88
